Bioassay records as filed in PubChem.
Mtb growth: M. tuberculosis H37Rv growth inhibitors, H37Rv strain (AID 1626); hit rate 0.95% among 220,000; M. tuberculosis H37Rv growth inhibition; higher % means a stronger effect; inhibition, % at 10 µM; hits with a dose series show IC50 in µM;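 active = confirmed in a dose series; inconclusive = inhibition above 80% but not taken into the dose series; inactive = below 80% or under 30% at every dose of the series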;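 note: bacteria incubated seven days before Alamar blue readout; 0% = bacteria only wells and 100% = bacteria with antibiotic wells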
RecA splice inh: inhibitors of M. tuberculosis RecA intein splicing; P9WHJ3; hit rate 0.75% among 290,000; cell-free RecA intein splicing, fluorescence; inhibition, %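 (about 9 µM by stock and volumes)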; in the data active = inhibition above about 30%; inconclusive = no clear call, values can overlap the other calls;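 note: 0% = vehicle wells and 100% = reference inhibitor control wells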
Target sequence (P9WHJ3 whole entry, looked up, canonical isoform): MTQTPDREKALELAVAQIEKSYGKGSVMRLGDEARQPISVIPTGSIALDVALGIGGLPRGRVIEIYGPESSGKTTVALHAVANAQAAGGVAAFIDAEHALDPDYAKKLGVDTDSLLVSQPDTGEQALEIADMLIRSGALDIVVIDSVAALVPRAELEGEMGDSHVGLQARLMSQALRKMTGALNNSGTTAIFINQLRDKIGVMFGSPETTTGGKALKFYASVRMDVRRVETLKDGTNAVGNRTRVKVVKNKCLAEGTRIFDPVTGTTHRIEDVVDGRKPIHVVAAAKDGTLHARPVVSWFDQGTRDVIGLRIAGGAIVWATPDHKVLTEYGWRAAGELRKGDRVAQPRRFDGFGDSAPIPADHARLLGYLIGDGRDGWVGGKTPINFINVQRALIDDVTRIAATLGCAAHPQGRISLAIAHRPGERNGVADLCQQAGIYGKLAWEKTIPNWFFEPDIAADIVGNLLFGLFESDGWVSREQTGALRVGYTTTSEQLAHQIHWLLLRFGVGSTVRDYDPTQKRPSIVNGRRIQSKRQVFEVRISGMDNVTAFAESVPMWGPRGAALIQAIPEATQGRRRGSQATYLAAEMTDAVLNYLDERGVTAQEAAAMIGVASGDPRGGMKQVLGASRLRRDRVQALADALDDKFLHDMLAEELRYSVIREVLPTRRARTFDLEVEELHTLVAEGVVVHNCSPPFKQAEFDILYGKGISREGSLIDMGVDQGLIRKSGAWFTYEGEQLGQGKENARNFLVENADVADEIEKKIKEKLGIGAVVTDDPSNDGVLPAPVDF
Mtb betalactam: beta-lactam sensitization of Mtb H37Rv | M. tuberculosis H37Rv growth with meropenem, percent inhibition; hits of this screen are not shown here | hit rate 0.27% among 330,000 | inhibition, % at 25 µM | AID 434955;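 active = about 74% or more and at least 40 points above the plate without the antibiotic, then above 30% in a dose series; inconclusive = first-round hits that could not be retested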;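 note: growth measured after seven days incubation then overnight dye step; 0% = bacteria only wells and 100% = bacteria with antibiotic; twin plates without the antibiotic show which effects depend on it; some results filed as inactive read as strong as hits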
Arbovirus inh: antivirals against arbovirus infection; arbovirus infection cell-based antiviral screen; inhibition, % at 10 µM; hit rate 0.37% among 200,000; AID 1251;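 active = inhibition from about 30%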;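 note: bluetongue infection of BSR cells; cell survival read as ATP light after 72 h; 0% = infected wells without compound and 100% = uninfected wells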
YopH inh: blocks Yersinia enterocolitica YopH tyrosine phosphatase; hit rate 0.16% among 140,000; inhibition, %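 (about 10 µM by stock and volumes)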; fluorescence Ex485/Em525; AID 898;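 active = inhibition of 50% or more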;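 note: controls were vehicle for no effect and minimum signal wells for full effect; inactives centre near -20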
Arbovirus inh repeat: further read-out of Arbovirus inh, marked with its call; inhibition, %; measured here: 10K subset replicate screen; many hits read low in the repeat;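 first of two repeat runs on a subset; 0% = infected and 100% = uninfected wells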
Starred values were filed as active, the others as inactive; ? = inconclusive; / = not tested or not shown. An excerpt; rates above refer to the full screens.

SMILES | Mtb growth | RecA splice inh | Mtb betalactam | Arbovirus inh | YopH inh | others
Cc1nn(-c2ccccc2)c(N2CCCC2)c1/C=N/NC(=S)Nc1cc(C(F)(F)F)ccc1Cl | / | 2.3 | 1 | -7 | -10
CSc1ccc(/C=N/NC(=O)CN2CCN(Cc3ccc(C)cc3)CC2)cc1 | -5% | -0.2 | 2 | -3 | 11
CSC1=NCCN1C(=O)c1ccc(S(=O)(=O)N(C)C)cc1 | -5% | 1.4 | -11 | 5 | -29
O=C(CSc1ncnc2nc[nH]c12)c1ccc([N+](=O)[O-])cc1 | -1% | -1.2 | -5 | / | /
CCOc1ccc(OCC(O)CN2CCc3ccccc3C2)cc1 (stereo not drawn) | / | 1.6 | -2 | / | /
CC(=O)Nc1ccc(N2C(=O)CC(c3ccccc3)CC2=O)cc1 | -14% | 1.5 | -9 | 3 | -6
Brc1ccc2ncnc(NCc3cccnc3)c2c1 | -5% | 1.1 | -10 | / | /
CCCCCCc1nc2ccccc2c(=O)n1NC(=O)c1c(O)c2c(n(CC(C)C)c1=O)CCCC2 | -8% | 1.0 | 2 | -20 | 5
Cc1cccc(N(CC(=O)Nc2c(C)n(C)n(-c3ccccc3)c2=O)S(C)(=O)=O)c1 | -10% | / | -3 | 0 | -23 | Arbovirus inh repeat=0
COc1cccc(NC(=O)Nc2ccccc2SC)c1 | -4% | 1.1 | 4 | 0 | /
CC(=O)c1cccc(CN2CCCC(N3CCN(c4ccccc4F)CC3)C2)c1 (stereo not drawn) | / | 0.0 | -4 | / | /
CC(=O)c1ccc(OC(=O)c2cc3ccccc3oc2=O)cc1 | 9% | -5.9 | 0 | -10 | /
CC(=O)Nc1nc(C)nc(-c2ccccc2)c1C(C)=O | -8% | 0.4 | -2 | -1 | -101
CCOC(=O)c1sc(NC(=O)CSc2nccc(C)n2)c(C#N)c1C | / | 2.3 | -4 | -15 | 1
CCCCC(=O)Nc1ccc(C(=O)NNC(=O)c2ccco2)cc1 | 10% | / | 3 | -2 | -38
COC(=O)c1cc(CN2CCN(c3ccccc3C)CC2)ccc1O | 1% | -1.9 | -14 | 6 | -4
COc1ccccc1N1CCN(C(=O)c2cnn3cccnc23)CC1 | -2% | -8.1 | / | -5 | -34
Cc1cc(NC(=O)Cc2cccs2)nn1CC(=O)NCc1ccco1 | 0% | 7.6 | -4 | -4 | 5
COc1ccc(C)cc1S(=O)(=O)N(C)CC(N)=O | 4% | -6.5 | 6 | -5 | -33
COc1cc(C)c(S(=O)(=O)NC2CC(C)(C)NC(C)(C)C2)cc1C | -8% | -5.5 | 2 | -4 | -22
CCCCCN(C(=O)CCC(=O)OCc1cc(C(C)=O)ccc1OC)c1c(N)n(CCCC)c(=O)[nH]c1=O | / | 2.6 | -6 | / | /
CSc1cccc(NC(=O)c2ccc(Cl)nc2)c1 | 7% | 0.6 | 88 | -1 | -1
COc1cc(NC(=O)CCN2CCN(CCO)CC2)cc(OC)c1 | / | 5.7 | 3 | / | /
CCOc1ccc(N2CC(C(=O)Nc3cccc(S(=O)(=O)N4CCCC4)c3)CC2=O)cc1 (stereo not drawn) | / | 0.4 | 3 | / | /
Cc1nc2ccccn2c1C(=O)N/N=C/c1cc(C)n(-c2ccc(Cl)cc2)c1C | -8% | 1.7 | 6 | 2 | -29

More entries follow:
SMILES | Mtb growth | RecA splice inh | Mtb betalactam | Arbovirus inh | YopH inh | others
O=C(NN=C1CCCCCCC1)C(=O)NC1CCCCC1 | 0% | 2.0 | -2 | -13 | -22
O=C1CCCN1CCC1CCN(C(=S)Nc2ccc(F)cc2)CC1 | -3% | -0.3 | -24 | 8 | 7
CN(Cc1ccccc1)C(=O)CCn1c(=O)c2cccn2c2cccnc21 | / | -2.9 | -2 | / | /
Cc1ccc(NC(=O)CSCC(=O)O)c(C)c1 | -2% | / | -10 | 0 | -17
COCCN1C(=O)c2ccccc2C(C(=O)N2CCN(c3ccccn3)CC2)C1c1ccc(F)cc1 (stereo not drawn) | 2% | 2.8 | / | 10 | 11 | Arbovirus inh repeat=-2
CCn1c(SCC(=O)c2ccccc2)nc2c(c1=O)SC(C)C2 (stereo not drawn) | 2% | 0.8 | 1 | -3 | -25
CC1CCN(c2ccccc2NC(=O)c2ccc(C#N)cc2F)CC1 | 8% | 0.1 | -5 | -5 | /
Cc1cc(Cl)ccc1OC(C)C(=O)NN=C1CCCCCC1 (stereo not drawn) | / | 1.3 | 1 | / | /
CCc1ccc2nc(N(CCN(C)C)C(=O)c3ccc4ccccc4c3)sc2c1 | / | 8.0 | ? | / | /
COc1ccccc1NC(=O)C(C)Sc1nc2ccccc2c(=O)n1CC1CCCO1 (stereo not drawn) | / | -1.6 | 4 | / | /
COCCCNc1nc(SCc2ccccc2)nc2sc3c(c12)CCC3 | 1% | 3.3 | / | 8 | -7
Fc1ccc(N2CCN(Cc3cnc(N4CCOCC4)s3)CC2)cc1 | 3% | -0.4 | -10 | 4 | /
O=C(Nc1ccc(S(=O)(=O)Nc2ncccn2)cc1)c1ccccc1NS(=O)(=O)c1ccc(Cl)cc1 | -8% | -1.1 | -9 | / | /
CCOC(=O)c1cn(-c2nc(-c3ccc(Cl)c(Cl)c3)cs2)c2c(F)c(N3CCOCC3)c(F)cc2c1=O | / | -1.1 | ? | -13 | -25
O=C(NCCc1cnc[nH]1)Nc1cccc(C(F)(F)F)c1 | / | 1.7 | 5 | / | /
CCOC(=O)c1c(NC(=S)NC(=O)/C=C/c2cccs2)sc(C)c1C | 3% | -1.5 | 3 | -7 | -28
O=C(NCC(c1ccco1)N1CCCC1)c1ccc(S(=O)(=O)Nc2ccccc2F)cc1 (stereo not drawn) | / | -1.5 | 4 | / | /
Cc1nn(C)cc1/C=N\NC(=O)c1ccc2c(c1)c(C)c(C)n2Cc1ccccc1 | -8% | 23 | 68 | -9 | 3
CCOC(=O)C1(Cc2cccc(F)c2)CCN(C(=O)Cn2cnnn2)CC1 | 3% | 2.7 | -2 | / | /
O=[n+]1cc(-c2ccc(Cl)cc2)n([O-])c2c1CCCCC2 | 2% | -0.3 | -4 | -8 | -21
CCOc1ccccc1N1CCN(C/C=C/c2ccc(N(C)C)cc2)CC1 | 5% | 4.0 | -9 | 10 | -14
Cc1c(C#N)c(NC(=O)c2ccccc2)n(Cc2ccccc2)c1C | 1% | -0.2 | 5 | -2 | -21
CCc1nnc(NC(=O)CSc2nnc3nc(C)cc(C)n23)s1 | / | 0.5 | -6 | / | /
c1ccc(-c2cc3nccc(-c4ccccn4)n3n2)cc1 | 4% | 0.8 | 21 | -4 | -22
Cc1ccc(C)c(C(=O)CN2C(=O)c3ccccc3C2=O)c1 | / | 0.6 | -1 | / | /

A portion of the results above, for reference:
SMILES | Mtb growth | RecA splice inh | Mtb betalactam | Arbovirus inh | YopH inh | others
O=[n+]1cc(-c2ccc(Cl)cc2)n([O-])c2c1CCCCC2 | 2% | -0.3 | -4 | -8 | -21
CCOc1ccccc1N1CCN(C/C=C/c2ccc(N(C)C)cc2)CC1 | 5% | 4.0 | -9 | 10 | -14
Cc1c(C#N)c(NC(=O)c2ccccc2)n(Cc2ccccc2)c1C | 1% | -0.2 | 5 | -2 | -21
CCc1nnc(NC(=O)CSc2nnc3nc(C)cc(C)n23)s1 | / | 0.5 | -6 | / | /
c1ccc(-c2cc3nccc(-c4ccccn4)n3n2)cc1 | 4% | 0.8 | 21 | -4 | -22
Cc1ccc(C)c(C(=O)CN2C(=O)c3ccccc3C2=O)c1 | / | 0.6 | -1 | / | /

The listing continues.
SMILES | Mtb growth | RecA splice inh | Mtb betalactam | Arbovirus inh | YopH inh | others
C/C(=N\NC(=O)CSc1nc2ccccc2o1)c1ccc(O)cc1 | -3% | -1.9 | 12 | -8 | /
CC1CCCC(C)N1CCCNC(=O)c1cc2c(=O)n(C)c3ccccc3c2n1C (stereo not drawn) | -3% | -0.6 | -2 | 11 | 7 | Arbovirus inh repeat=-9
CCCC1(c2ccccc2)NC(=O)N(CC(=O)NCc2ccc(OC)cc2)C1=O (stereo not drawn) | / | -0.7 | -1 | / | /
CC(=O)NCC1(O)CCCC(C)C1 (stereo not drawn) | -8% | -1.9 | -3 | / | /
O=C(CCC1CCCN(C(=O)c2cccnc2)C1)NCc1ccccc1F (stereo not drawn) | / | 1.1 | -4 | / | /
CCNC(=O)O/N=C(\C)c1sc(-c2ccc(Cl)cc2)nc1C | 6% | 3.4 | 73 | -9 | -15
Cc1ccc2nc(C)cc(N/N=C/c3cccc(O)c3)c2c1 | / | 0.0 | -7 | / | /
CCC(C)[C@H](NC(=O)OC(C)(C)C)C(=O)N/N=C/c1ccc2cc(OC)ccc2n1 (stereo partly drawn) | 2% | -3.2 | -8 | -6 | -18
COc1cccc(OCCSc2nnc3sc4ccccc4n23)c1 | 12% | -1.3 | 1 | 10 | -90
O=C(NCCCl)Nc1cccc(Br)c1 | 1% | -5.6 | -4 | 2 | /
N#CCO/N=C(\c1ccccc1)c1ccncc1 | -7% | 2.0 | 7 | 1 | -32
COCCn1c(C)cc(C(=O)CN2C(=O)NC3(CCCCCCC3)C2=O)c1C | -5% | -1.8 | -1 | 0 | -29
COc1cccc(N2CCN(c3ncnc4c3cnn4-c3ccc(C)cc3C)CC2)c1 | 14% | 0.6 | 64 | 27 | -50 | Arbovirus inh repeat=-7
O=C(CSc1nc(-c2ccc(F)cc2)cc(C(F)(F)F)n1)Nc1ccc2c(c1)OCO2 | 3% | -0.4 | 7 | -23 | -51
COc1ccc(N2CCN(S(=O)(=O)c3ccc(C(=O)NC4CCCC4)cc3)CC2)cc1 | -8% | 0.1 | -7 | -1 | 6
Cc1cccc(NC(=O)CN2C(=O)CNC2=O)c1 | / | 2.3 | -6 | 7 | -5
COc1ccccc1CN1C(=O)c2ccncc2C1=O | -1% | 1.7 | 6 | -1 | -4
CCOC(=O)Cc1csc(NC(=O)CN(C)S(=O)(=O)c2ccc3c(c2)CCC(=O)N3)n1 | 5% | / | 7 | / | -26
Cc1c(N2C(=O)/C(=C/c3ccccc3)SC2=S)c(=O)n(-c2ccccc2)n1C | -14% | 6.6 | 2 | 0 | -45
COc1cc(-c2cn(S(=O)(=O)c3cccc4nsnc34)nc2N)cc(OC)c1OC | 3% | -7.2 | -5 | -20 | 4
COc1cccc(NC(=O)c2ccncc2)c1 | 6% | 0.1 | -10 | -1 | -54 | Arbovirus inh repeat=3
CC(=O)N1c2ccc(S(=O)(=O)N3CCCC(C(=O)Nc4ccc(C)cc4C)C3)cc2CC1C (stereo not drawn) | / | -0.3 | -4 | / | /
O=C(CSc1cccc[n+]1[O-])Nc1cccc(S(=O)(=O)NC2=NCCCCC2)c1 | 6% | 4.7 | 1 | 2 | /
Cc1cc2c(NCCc3ccccc3)ncnc2s1 | / | 2.0 | 0 | / | /
O=C(/C=C/c1ccc(Cl)c([N+](=O)[O-])c1)c1ccc(O)cc1 | ? | 21 | 99 | / | /

The results go on.
SMILES | Mtb growth | RecA splice inh | Mtb betalactam | Arbovirus inh | YopH inh | others
Cc1ccccc1N1CCN(C2CCCN(C(=O)c3ccnn3C)C2)CC1 (stereo not drawn) | / | 1.0 | ? | / | /
COCCN(C(=O)COC(=O)CCSc1ccc(F)cc1)c1c(N)n(Cc2ccccc2)c(=O)[nH]c1=O | / | 1.1 | -2 | / | /
Cc1cc(C(=O)OCC(=O)N2CC(C)CC(C)C2)c(C)o1 (stereo not drawn) | -7% | -3.6 | -1 | 0 | -38
O=C(O)/C=C/c1cccc(OCc2ccccc2)c1 | 6% | -0.2 | -2 | 8 | /
N/C(Cc1ccc(Cl)cc1)=N\OC(=O)c1ccc2ccccc2c1 | 4% | 0.6 | 31 | 1 | 8
O=C(NCCc1ccccc1)c1ccc(Br)o1 | -1% | 1.3 | -5 | 1 | -55 | Arbovirus inh repeat=2
COc1ccc(Cc2[nH]n3c(=O)c(Cl)c(C)nc3c2-c2ccccc2)cc1 | 3% | 0.0 | -8 | -10 | /
CCCNC(=O)c1ccc(N2CCC3(CC2)CC(c2ccccc2)=NO3)c(NC(=O)c2cccc(C)c2)c1 | / | 0.5 | -1 | / | /
O=C(NCc1ccc2c(c1)OCO2)c1c(F)c(F)c(F)c(F)c1F | 10% | 1.3 | 3 | 2 | -18
CCN1CCN(c2nc3c(C)cccn3c(=O)c2/C=C(\C#N)C(=O)NC)CC1 | / | -218 | 0 | / | /
Cc1c(C(=O)C(C)C)n(C)c2ccccc12 | 7% | 0.1 | 5 | -5 | -24
O=C(CSc1nncn1-c1ccccc1)N1CCCC1 | / | 0.6 | -1 | / | /
COc1ccc(/C=C2\SC(=O)N(CCNC(=O)C3CC4C=CC3C4)C2=O)cc1 (stereo not drawn) | -8% | 1.2 | -11 | 4 | /
